Ba CapD inh = CapD enzyme inhibition; purified CapD enzyme, fluorescence intensity read-out; stronger effect = lower value; some hits fall short of the stated cut; z-score (test concentration not listed); actives 0.23% (n = 140,000); AID 492967;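 active = z-score under -4 in either of two replicates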;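 note: stock transfer was 100 nL into about 40 µL; score is relative to mean and spread of the plate; one replicate is shown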
AID504770 = E. coli YBA685 growth inhibition, screen for V. cholerae RctB inhibitors. E. coli YBA685 rctB-dependent plasmid, OD600 growth, 3 h; stronger effect = lower value. z-score (concentration not given with the values). actives 0.27% (n = 130,000). AID 504770;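 active = z-score under -2 on both plates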;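 note: wells of about 30 µL received 100 nL stock; score is relative to mean and SD of the test wells; the first replicate is given; strong numbers were not always called active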
* marks the source's active call; other numbers are inactive results; x = no result given; & = joins results of further samples.

compound	Ba CapD inh	AID504770
CCOC(=O)C1=C(c2ccccc2)N=c2s/c(=C\c3cccnc3)c(=O)n2C1c1ccc(OC)c(OC)c1 (stereo not given)	1.06	x
CCOC(=O)c1c(C)n(C2CCCCC2)c2cc(Br)c(OC(C)=O)cc12	-0.03	x
COc1cc(C(=O)NN2C(=O)c3c(C(C)C)nc4ccc(Cl)cc4c3C2=O)nc2ccccc12	-0.12	x
CCOC(=O)c1sc(N/N=C/C2CC=CCC2)nc1C (stereo not given)	-0.15	0.5
Cc1nonc1NC(=O)CSc1ccccn1	-0.035	-1.1
Clc1cccc(NCc2cccc3c2CN(CC2CCCO2)C3)c1 (stereo not given)	0.445	0.35
Cc1ccccc1Nc1nc(N)nc(CSCC(=O)N2CCc3ccccc32)n1	x	0.15
O=C1S/C(=C\c2ccc(Cl)cc2)C(=O)N1Cc1ccccc1	0.195	-0.65
FC(F)(F)c1cnc(Sc2nccn2-c2ccccc2)c(Cl)c1	-0.08	x
Cn1ccsc1=NC(=O)Cc1ccc(Cl)c(Cl)c1	x	1
COc1ccc(CCNC(=O)c2ccc3c(c2)[nH]c(=S)n2c4ccccc4nc32)cc1OC	-0.285	x
O=C(O)CC(CC(=O)Nc1ccccc1)c1ccccc1 (stereo not given)	0.445	1.8
O=C(Nc1nncs1)c1ccco1	-0.235	-0.65
O=c1c2c(-c3ccco3)csc2[nH]c(=S)n1-c1ccccc1	-0.56	x
COc1cc2c(cc1O[C@@H]1O[C@H](CO)[C@@H](O)[C@H](O)[C@H]1O)CCN1CC=C3C=C[C@@H](OC)CC321 (stereo not given in full)	-0.9	x
CCN(CC)c1nc2nonc2nc1N(CC)CC	-3	x
O=C(COc1ccc(S(=O)(=O)N2CCCC2)cc1)N1CCCC1	x	0.4
CCOC(=O)c1c(C)oc2ccc(N(C(=O)c3ccccc3)S(=O)(=O)c3ccccc3)cc12	-0.2	x
Nc1cccc(/C=C/c2ccncc2)c1	-3.01	-0.15
COc1cccc(/C=C/C(=O)OCC(=O)N2CCC(C)CC2)c1	x	-0.4
Cc1ccc(Nc2cc(Nc3ccccc3)ncn2)cc1	0.365	-1
COC(CNc1cc(C)nc2c(-c3ccc(Cl)cc3)c(C)nn12)OC	77.2	1.25
O=c1oc(-c2ccccc2)nc2sc(-c3ccccc3)c(Cc3ccccc3)c12	2.09	x
N#Cc1c(SCC(=O)Nc2nccs2)nsc1SCC(=O)Nc1nccs1	0.335	0.65
COc1cc(-c2[nH]nc3c2C(c2ccccc2Br)C(C#N)=C(N)O3)cc(OC)c1OC (stereo not given)	0.29	x

Rewritten as labelled records: part of the list above.
O=c1c2c(-c3ccco3)csc2[nH]c(=S)n1-c1ccccc1
  Ba CapD inh: -0.56
  AID504770: x

COc1cc2c(cc1O[C@@H]1O[C@H](CO)[C@@H](O)[C@H](O)[C@H]1O)CCN1CC=C3C=C[C@@H](OC)CC321 (stereo not given in full)
  Ba CapD inh: -0.9
  AID504770: x

CCN(CC)c1nc2nonc2nc1N(CC)CC
  Ba CapD inh: -3
  AID504770: x

Next section
compound	Ba CapD inh	AID504770
Cc1c(C(=O)NCCCN2CCOCC2)sc2ncn(CC(=O)Nc3cccc(C(F)(F)F)c3)c(=O)c12	-0.415	x
CC1CCN(C(=O)CCCC(=O)O)CC1	0.005	0.45
O=c1[nH]c(=S)[nH]c2nc(-c3cccs3)cc(C(F)(F)F)c12	x	0.2
CCCc1nc2ccccc2n1CCC	0.015	-0.45
C=C(C)c1cccc(C(C)(C)NC(=O)N2CCN(c3ccc(OC)cc3)CC2)c1	0.235	0.3
Cc1csc2nc(CSCC(=O)N3CC(C)CC(C)C3)cc(=O)n12 (stereo not given)	x	0.25
COc1cccc(C2C(N3C(=O)c4ccccc4C3=O)C(=O)N2c2ccccc2OC)c1 (stereo not given)	-0.25	x
O=C(NCCSc1nnnn1-c1ccccc1)Nc1ccccc1	-1.79	0.05
CN(C)C(=O)Oc1nnc(SCc2ccccc2)n1-c1cccc(Cl)c1	1.48	-0.4
CC(C)(C)OC(=O)N1Cc2ccccc2CC1C(=O)NNC(=O)OCc1ccccc1 (stereo not given)	0.27	x
O=C(CCc1ccc(O)cc1)NNC(=O)C1C2C=CC(C2)C1C(=O)O (stereo not given)	-0.305	x
Cc1cccc(-c2nnc(SCc3nc4sc5c(c4c(=O)[nH]3)CCC(C)C5)n2C)c1 (stereo not given)	x	-0.15
CCOC(=O)N1CC(=O)Nc2ccc(Br)cc2C1c1ccccc1 (stereo not given)	0.42	-0.4
CSc1nc(N)nc2nc[nH]c12	34.5	x
CC(C)OC(=S)Nc1cccc(Cl)c1	-0.075	0.35
C/C(=N\N=c1/sc2ccccc2n1C)c1ccc(S(=O)(=O)NCc2ccco2)cc1	x	-0.85
O=C(O)/C=C\C(=O)N1CCC(c2nnc(-c3ccccc3)o2)CC1	-0.17	x
O=C(O)COCC(=O)Nc1ccc(Br)cc1	0.55	-0.25
NC(=O)C1CCN(C(=O)c2ccccc2)CC1	-0.23	-1.2
CN(CCc1ccccn1)C(=O)OCCc1cccc(Cl)c1	-0.125	x
CC(=O)Nc1ccc(S(=O)(=O)NC2C3(C)CCC(C3)C2(C)C)cc1 (stereo not given)	1.54	-1
CCC(=O)NCCSc1c(C)[nH]c2ccccc12	-0.725	2.7
Cc1cc(N2CCNCC2)c2ccccc2n1	-0.51&-0.695	x
O=C(CN1c2ccccc2Sc2ccccc21)N/N=C/c1ccco1	0.42	-0.4
CCC(=O)Oc1ccc(C#N)cc1OC	-0.99	0.4

Given with two lines to a compound: five of the compounds above
Results follow in this order: Ba CapD inh, AID504770
C=C(C)c1cccc(C(C)(C)NC(=O)N2CCN(c3ccc(OC)cc3)CC2)c1
 : 0.235, 0.3
Cc1csc2nc(CSCC(=O)N3CC(C)CC(C)C3)cc(=O)n12 (stereo not given)
 : x, 0.25
COc1cccc(C2C(N3C(=O)c4ccccc4C3=O)C(=O)N2c2ccccc2OC)c1 (stereo not given)
 : -0.25, x
O=C(NCCSc1nnnn1-c1ccccc1)Nc1ccccc1
 : -1.79, 0.05
CN(C)C(=O)Oc1nnc(SCc2ccccc2)n1-c1cccc(Cl)c1
 : 1.48, -0.4

(continued)
compound	Ba CapD inh	AID504770
O=c1c2[nH]c3ccccc3c2ncn1CCCN1CCCC1	36.3	-0.2
FC(F)(F)c1cc(N2CCN(c3ccccc3)CC2)c2cccc(Cl)c2n1	0.735	-0.15
CC1CCCN(S(=O)(=O)c2cccc(S(C)(=O)=O)c2)C1 (stereo not given)	0.305	0.35
O=C(O)CCS(=O)(=O)c1ccc2c(c1)OCCO2	x	1.05
CCC(N)CC12CC3CC(CC(C3)C1)C2 (stereo not given)	-0.23	-0.2
COC(=O)c1sccc1NC(=O)c1ccccc1C(=O)N1CCN(C/C=C/c2ccccc2)CC1	-0.465	x
CN(C)c1cc(C(=O)O)nc(N(C)C)n1	0.04	x
CCCN(C(=O)c1ccc(=O)n(C)n1)S(=O)(=O)c1ccc(Cl)cc1	x	-0.2
CC1CCN(CC(=O)NCc2ccccc2)CC1	-0.15	-1.3
CSc1nc(-c2ccc(C(C)(C)C)cc2)c(C#N)c(=O)[nH]1	1.91	-0.15
CC(C)C(C)NC(=O)COc1nc2ccccc2nc1N(C)C1CCCCC1 (stereo not given)	x	-0.85
O=c1[nH]c(=O)n(-c2ccc(F)cc2)c(O)c1C=Nc1ccccc1	-1.1	0.7
O=C(O)CCC(=O)Nc1cccc(-c2nc3ccccc3o2)c1	1.02	-0.35
COc1ccc(-c2cc(=O)c3c(O)c(OC)c(OC)c(OC)c3o2)cc1	x	-0.4
CC1(C)Cc2ccccc2C(Nc2ccc(F)c(F)c2)=N1	-0.29	x
O=C(c1cccc2c1NC(c1ccc(Br)cc1)C1CC(Sc3ccccc3[N+](=O)[O-])C(Cl)C21)N1CCCC1 (stereo not given)	25.3	x
O=C(CNCc1ccccc1F)NC(=O)Nc1ccc2c(c1)OCCO2	x	-1.05
O=C(CCN1C(=O)/C(=C\c2cccs2)SC1=S)Nc1ccccn1	-0.345	x
Cc1ccc(C(=O)O)cc1S(=O)(=O)NCc1ccco1	-1.08	2
CCOc1ccc(-n2c(SCC(=O)N(C)C3(C#N)CCCCC3)nc3ccccc32)cc1	x	-0.25
O=C(CSC(=S)N1CCOCC1)c1ccc(Cl)cc1	0.145	x
COC(=O)C1=NNC2C(=O)N(c3ccccc3C(F)(F)F)C(=O)C12 (stereo not given)	x	-1.55
COc1cc2c(cc1OC)CN(c1ncnc3c1oc1ccccc13)CC2	x	-0.75
O=C(O)C1=C(C(=O)NC2CCCc3ccccc32)SCCS1 (stereo not given)	1.43	1.4
N=C1c2ccccc2CN1c1ncc(C(F)(F)F)cc1Cl	-0.235	-0.9
COc1cccc2sc(NC(=O)c3ccc(S(=O)(=O)N4CCCc5ccccc54)cc3)nc12	-0.39	x
O=C(CC1Sc2ccccc2NC1=O)NNC(=O)OCCSc1ncc2ccccn12 (stereo not given)	10.5	x
CC(C)C(Nc1ncnc2sc3c(c12)CCC3)C(=O)O (stereo not given)	-0.07	1.9
Cc1cccc(N2C(=O)CC(Sc3nccc(C)n3)C2=O)c1 (stereo not given)	0.14	-0.05
Cc1cccc(C)c1N(CC(=O)NN=C1CCCCCC1)S(C)(=O)=O	3.67	-0.05
C=CCOc1ccc(CN2CCN(C(=O)c3ccc(-c4ccccn4)s3)CC2)cc1	0.785	x
N=C1S/C(=C\c2cc([N+](=O)[O-])c(N3CCOCC3)cc2N2CCOCC2)C(=O)N1c1ccc(F)cc1	-0.71	x
O=C(NCCN1CCCCCC1)c1csc2c1CCCC2	-0.22	-1.05
c1ccc(CN=C2NN=C(c3ccccc3)CS2)cc1	x	1.95
COc1ccc(C2=C/C(=C3/c4ccccc4-c4ncccc43)C(=O)O2)c(OC)c1	-0.14	x
NS(=O)(=O)c1ccc(NC(=O)COC(=O)CN2C(=O)CCC2=O)cc1	-0.79	-0.8
COc1ccccc1C(=O)Oc1ccc2sc(=O)oc2c1	-0.015	0.8
CCSc1nc2sccc2c(=O)n1-c1ccccc1	x	0.3
Cc1cc(C)nc(NCCCC(=O)O)n1	x	0.3
Cc1cccc(NC(=O)C(Cc2c[nH]c3ccccc23)NC(=O)OCc2ccccc2)c1 (stereo not given)	-0.17	x
N#Cc1c(-c2ccc(Cl)cc2)cc(-c2cccc(Br)c2)[nH]c1=O	0.515	x
COc1ccc(C2CC(=O)C3=C(C2)OC(N)=C(C#N)C3c2ccc([N+](=O)[O-])cc2)cc1OC (stereo not given)	0.355	x
CCN1CCC(N2CCCCC2)CC1	-0.06	-0.65
CC(=O)N1c2ccccc2N=C(c2ccc(C)cc2)CC1c1ccccc1 (stereo not given)	-0.405	-0.85
O=C(C1CCCN(c2ncnc3onc(-c4ccc(F)cc4)c23)C1)N1CCCCC1 (stereo not given)	1.16	1.05
CCC(C)(C)c1ccc(S(=O)(=O)NC(C(=O)OC(C)(C)C)c2ccccc2)cc1 (stereo not given)	0.285	x
CCOC(=O)/C=C(\C)NCCNc1ncc(C(F)(F)F)cc1Cl	0.165	x
CN(C)CCCN1C(=O)CCn2c(-c3ccccc3)c(-c3ccccc3)c3cccc1c32	79.2	x
CCN1CCc2nc3sc(C(=O)Nc4ccccc4)c(N)c3cc2C1	0.19	-0.3
CCn1nnnc1SCC(=O)c1ccc(C)cc1C	x	-0.65

Additional structures
compound	Ba CapD inh	AID504770
N#Cc1ccc(COC(=O)c2ccc3c(c2)OCCO3)cc1	x	-0.95
CCOc1ccc(OCCOC(=O)c2cnc(C)cn2)cc1	x	-0.35
Cc1c(NC(=S)Nc2ccc(Cl)c(Cl)c2)cc2c(c1N)C(C)(C)CC2(C)C	0.145	x
CCNc1cc(N(C)CCO)c2noc3c2c1C(=O)c1ccccc1-3	-0.43	1.6
COc1ccccc1OCCNC(=O)c1n[nH]c2ccccc12	x	-1.1
CCc1oc2cc(OC(C)=O)ccc2c(=O)c1-c1ccc2c(c1)OCCO2	x	-0.35
Cn1c2ccccc2c2cc(C(=O)NNC(=O)c3ccc(F)cc3)sc21	10.2	x
COc1cc(CNC(=O)N(C)CCc2ccccn2)cc(OC)c1	0.585	x
Cn1nc(C(F)(F)F)c(/C=N/OC(=O)c2ccc(Cl)cc2)c1Cl	-0.705	x
CCCCCCCCOc1ccc(/C=C2\c3cc([N+](=O)[O-])ccc3-c3c2cc([N+](=O)[O-])cc3[N+](=O)[O-])cc1	-0.25	x
CCn1c(SCC(=O)N2c3ccccc3Sc3ccccc32)nnc1-c1ccco1	0.205	-0.65
COc1ccc(NC(=O)c2ccccc2OCc2ccccc2)cn1	0.035	-1
Cc1c(C(=O)O)oc2ccc(S(=O)(=O)N3CCCCCC3)cc12	0.165	-0.55
CCOC(=O)C1=C(C)Nc2ncnn2C1c1cccs1 (stereo not given)	-0.145	x
O=C(COC(=O)c1ccc(Cl)nc1)c1cc2c3c(c1)CC(=O)N3CCC2	x	1.4
N=C1SCC(=O)N1c1nccs1	-3.21	-4.6*
CN[C@H]1CC[C@@H](c2ccc(Cl)c(Cl)c2)c2ccccc21	x	1.55
CSc1nnc(SC2CC(=O)N(c3cc(Cl)cc(Cl)c3)C2=O)s1 (stereo not given)	x	-0.2
O=C(O)c1ccccc1SC1CCS(=O)(=O)C1 (stereo not given)	x	0.55
COc1ccc(C2=NN(C(=O)CCC(=O)O)C(c3ccccc3F)C2)cc1 (stereo not given)	3.07	x
